# TRPML1 blocker: qHTS for Inhibitors of the Human Mucolipin Transient Receptor Potential 1 (TRPML1) | Mucolipin-1 (Homo sapiens), Q9GZU1 | TRPML1-inducible cells, Ca2+ dye fluorescence, FDSS; stronger effect = lower value; inhibition of EC80 agonist-evoked calcium signal | activity change, negative = inhibition, % (concentration not given with the values) | 390,000 compounds, 0.02% hits | AID 624415, 2012; in the data active means activity change below about -50%; inconclusive means about -30% to -50%; inactive means above about -30%;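 note: stimulus is agonist 54-4 at its EC80 concentration; % is set by controls: 0 for no effect and ±100 for the full control effect; the text of the record puts the active cut at -80%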
# Target sequence (Q9GZU1 whole entry, looked up): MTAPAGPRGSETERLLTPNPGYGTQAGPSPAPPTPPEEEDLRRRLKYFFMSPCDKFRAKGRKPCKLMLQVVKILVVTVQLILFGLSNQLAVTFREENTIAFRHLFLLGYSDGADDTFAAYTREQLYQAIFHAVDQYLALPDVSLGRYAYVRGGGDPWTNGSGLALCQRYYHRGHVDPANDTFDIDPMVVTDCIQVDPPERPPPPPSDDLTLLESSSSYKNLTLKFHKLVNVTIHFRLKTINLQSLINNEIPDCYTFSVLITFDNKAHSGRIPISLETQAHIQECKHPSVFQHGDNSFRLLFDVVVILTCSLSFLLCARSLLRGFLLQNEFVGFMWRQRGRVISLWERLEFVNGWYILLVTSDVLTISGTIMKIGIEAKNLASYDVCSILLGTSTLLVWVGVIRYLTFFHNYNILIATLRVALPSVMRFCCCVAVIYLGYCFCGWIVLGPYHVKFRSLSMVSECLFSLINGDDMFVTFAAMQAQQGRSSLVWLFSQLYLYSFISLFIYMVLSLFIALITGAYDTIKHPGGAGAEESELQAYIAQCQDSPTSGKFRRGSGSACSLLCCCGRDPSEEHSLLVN
#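 TRPML1-DL cells, Tet-induced overnight (~16 h, 37 °C) at 1,500 cells/well, were loaded with Ca8 no-wash dye plus quencher for 45-90 min at room temperature. Compounds were pinned during FDSS kinetic reading; agonist 54-4 at EC80 (4 uM final) then added.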
# TRPML1 ag: qHTS for Agonists of the Human Mucolipin Transient Receptor Potential 1 (TRPML1); TRPML1-expressing cells, Ca2+ dye fluorescence, FDSS; host cell line not named in the record; reference of the full effect not given here; activation, % (concentration not given with the values); 410,000 compounds, 0.12% hits; AID 624414, 2012; in the data active = activation above about 50%; inconclusive = about 30% to 50%; inactive = below about 30%; note: 0% is about no effect; the text of the record puts the active cut at 80%
#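 Tetracycline-induced TRPML1-DL cells are seeded and incubated overnight before loading with a no-wash Ca2+ dye and quencher. Agonist activity is taken from the 110 s fluorescence read following compound pin-transfer on an FDSS, before EC80 54-4 challenge.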
# Six1-Eya2 inh: qHTS Assay for Inhibitors of the Six1/Eya2 Interaction; Homeobox protein SIX1 (Homo sapiens) + Protein phosphatase EYA2 (Homo sapiens), …; AlphaScreen GST-Six1/His-Eya2 binding, biochemical; stronger effect = lower value; control for the full effect not named in the record; activity change, % (concentration not given with the values); 360,000 compounds, 0.56% hits; in the data active = activity change below about -65%; inconclusive = about -30% to -65%; inactive = above about -30%; note: % is set by controls: 0 for no effect and ±100 for the full control effect
#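 GST-Six1 + His-Eya2 (5X stock: 250/500 nM); Tris pH 8.0, 300 mM NaCl, 0.05% BSA, 0.02% Tween 20; GSH donor/Ni acceptor beads; 1 h 37 °C dark; AlphaScreen readout.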
# PINK1 modulator: A Quantitative High throughput Screen to Identify Chemical Modulators of PINK1 Expression. Potency, µM (titrated, usually from 76.6 µM), for the others: top-dose activation (PINK1 increase), most hits filed as activators. 410,000 compounds, 0.2% hits. PINK1 immunofluorescence, high-content cytometry, 24 h; active = well fitted activation curve with a large enough effect; inconclusive = small, poorly fitted or top-dose-only effect; inactive = flat fitted curve, though single readings scatter; cell line not stated here;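 note: potency is the fitted concentration of half-maximal effect; % of control where 0% means no effect; nearly all actives have a fitted effect of over 65% in size; a mitochondrial uncoupler was the plate control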
#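 Measures PINK1 amount and localization on or inside mitochondria by immunofluorescence. Stable cells get compounds at 5 concentrations for 24 hours before fixation and staining; CCCP controls included.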
# D2 agonist: Beta-Arrestin HTS for Positive Allosteric Modulators of the Human D2 Dopamine Receptor: Agonists. D(2) dopamine receptor (Homo sapiens), P14416. DiscoveRx PathHunter D2 beta-arrestin, luminescence, 90 min; 100% = 57 uM dopamine signal. activation, % (no concentration beside the values). 360,000 compounds, 0.084% hits. AID 624465, 2012; in the data active = activation above about 40%; inconclusive = about 15% to 40%; inactive = below about 15%; note: compound concentration not given in the record; the text of the record calls up to 30% inactive
# Target sequence (P14416 whole entry, looked up): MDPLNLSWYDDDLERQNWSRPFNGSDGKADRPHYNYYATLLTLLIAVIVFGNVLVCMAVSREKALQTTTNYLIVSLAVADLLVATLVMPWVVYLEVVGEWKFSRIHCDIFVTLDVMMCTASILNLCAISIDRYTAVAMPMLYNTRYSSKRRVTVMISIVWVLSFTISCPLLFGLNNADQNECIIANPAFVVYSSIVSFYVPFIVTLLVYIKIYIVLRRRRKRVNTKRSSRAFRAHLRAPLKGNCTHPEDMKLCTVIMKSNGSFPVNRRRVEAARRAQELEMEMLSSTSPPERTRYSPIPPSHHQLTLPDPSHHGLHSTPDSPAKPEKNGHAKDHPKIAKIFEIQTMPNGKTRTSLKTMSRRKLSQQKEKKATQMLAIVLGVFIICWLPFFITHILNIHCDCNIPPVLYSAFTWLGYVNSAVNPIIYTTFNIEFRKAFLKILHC
#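 Agonist mode: compounds alone added to overnight-plated D2 PathHunter cells for 90 min at 37 C, with 57 uM final dopamine (EC100) defining full response. Beta-arrestin recruitment detected by chemiluminescent reagent, read after 1 h at ambient temperature.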
# CtBP-E1A blk: qHTS Assay for Inhibitors of the CtBP/E1A Interaction; CtBP / adenovirus E1A interaction (AlphaScreen); AlphaScreen GST-E1A/His-CtBP binding, 1536-well; stronger effect = lower value; control for the full effect not named in the record; activity change, % (test concentration not listed); 340,000 compounds, 0.49% hits; AID 651724, 2012; in the data active means activity change below about -65%; inconclusive means about -30% to -65%; inactive means above about -30%; note: % is set by controls: 0 for no effect and ±100 for the full control effect
#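 Steps: dispense buffer (Tris pH 8.0, NaCl 300 mM, TCEP 1 mM, BSA, Tween 20); add 5X protein mix (GST-E1A, His-CtBP, 125 nM each); pin 23 nL compound; 2 h at 37 °C, dark; add 5X beads (50 ug/mL); 1 h; read.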
# * = called active by the depositor; ? = inconclusive; / = not tested or not shown; & = joins results of further samples.
nr	canonical_smiles	TRPML1 ag	TRPML1 blocker	PINK1 modulator	D2 agonist	CtBP-E1A blk	Six1-Eya2 inh
1	COc1ccc(NC(=O)C(=O)c2cn(CC(=O)N3CCCC3)c3ccccc23)c(OC)c1	0.0	-14	0.8%	-1.2	9	0
2	O=C(CC12CC3CC(CC(C3)C1)C2)NCC(=O)N1CCc2ccccc2C1	1.4	-7	-0.1%	-0.4	0	5
3	COc1ccccc1CNC(=O)/C=C/C(=O)O	-0.3	12	0.6%	-5.2	0	19
4	Cc1cccc(C(C(=O)NCc2ccc(F)cc2)N(C(=O)c2csnn2)C2CC2)c1 (stereo not given)	-0.1	6	-1.3%	-0.2	-1	-3
5	C=C(C)C1CCC(C)=C1COC(=O)Nc1ccccc1 (stereo not given)	3.0	5	?	4.2	31	29
6	CCCCOc1ccc(CNC(=O)c2cnc3sc(N4CCCCCC4)nn3c2=O)cc1	-0.3	1	3.1%	/	/	/
7	Cn1c(=O)c2c(nc(Oc3ccc4c(c3)OCO4)n2Cc2ccc(Cl)cc2)n(C)c1=O	3.3	-9	0.8%	-3.0	-3	4
8	CC1CCN(c2ccc([N+](=O)[O-])cc2C(=O)O)CC1	-0.2	68	-2.6%	-5.1	-24	-5
9	CCC(c1nnnn1C1CCCC1)N1CCN(c2ccccc2F)CC1 (stereo not given)	0.3	16	-2.6%	-0.5	4	-4
10	Cc1cccc(S(=O)(=O)Nc2cccc(-c3ccc(N4CCCCC4)nn3)c2)c1	3.2	-2	-0.6%	/	/	/
11	COc1ccc(-c2nnc(SCC(=O)c3ccc[nH]3)n2-c2ccccc2)cc1	0.2	23	1.1%	-2.1	-3	-15
12	O=c1c(O)c(-c2cccs2)oc2ccc(Cl)cc12	59*	-8	-0.3%	0.9	-2	7
13	Cn1c(SCC(=O)N/N=C/C=C\c2ccco2)nc2ccccc21	2.3	6	-1.0%	-2.7	0	-20
14	CCN(CC)CCN(C(=O)c1ccc([N+](=O)[O-])cc1)c1nc2c(OC)cccc2s1	-0.7	12	-0.1%	-1.6	2	9
15	CN1NC(c2ccccc2)NN(C)C1=O	-0.5	/	2.5%	-8.6	0	0
16	O=C(Cn1nc(Cl)nc1Cl)Nc1ccccc1	-0.2	0	-0.7%	-1.2	6	4
17	COC(=O)c1ccncc1C(=O)Nc1ccc(OC)cc1	1.1	-5	0.0%	0.7	6	7
18	CCOC(=O)C1=C(N)Oc2cc(C)n(C)c(=O)c2C1c1ccncc1 (stereo not given)	-0.2	11	2.1%	-1.1	-5	-9
19	Cc1nc(SCC(=O)NCCc2ccccc2)n[nH]1	-0.5	1	-1.0%	1.0	8	8
20	Cc1c(OCc2ccccc2)cccc1OCc1ccccc1	-0.4	37	11%	-0.5	97	113
21	CCOCCc1nn2c(=O)cc(COC(=O)c3ccccc3NC(=O)c3ccccc3F)nc2s1	2.0	-12	2.5%	/	/	/
22	Cc1ccc(-n2c(=O)c3cc4c(=O)n(-c5ccc(C)c(C)c5)c(=O)c4c(C(=O)c4ccc(C(=O)O)cc4)c3c2=O)cc1C	/	/	1.2%	-0.4	-4	-25
23	CCN(CC)c1ccc(NC(=O)/C=C/c2cc(Br)ccc2OC)cc1	2.6	-18	?	1.0	?	?
24	Cc1sc2ncnc(NC(C)C(=O)O)c2c1C (stereo not given)	1.0	?	-2.0%	-0.8	0	23
25	CC1=C(c2ccc(C)c(C)c2)S(=O)(=O)N=C1N1CCC(C(=O)NC(C)Cc2ccco2)CC1 (stereo not given)	-0.6	-1	-1.1%	/	/	/
26	CCCn1nc(NS(=O)(=O)c2ccc(F)cc2)c2cc3ccccc3nc21	-1.2	-21	2.2%	-5.4	-8	-1
27	Cc1ccc(N(C(=O)c2nsc(Cl)c2Cl)C(C(=O)NC2CCCC2)c2ccc(O)cc2)cc1C (stereo not given)	1.4	-20	3.0%	-5.8	10	-2
28	Cc1cc2ccccn2c1C(=O)c1ccc([N+](=O)[O-])cc1[N+](=O)[O-]	1.1	-3	3.6%	2.2	-5	-9
29	Cc1cc(C)c(OCC(=O)Nc2nc(-c3ccccn3)cs2)c(C)c1	1.7	-17	5.6%	-2.0	0	-5
30	CCCCc1ccc(S(=O)(=O)Nc2ccc(C)c(NS(C)(=O)=O)c2)cc1	1.1	17	1.1%	-2.5	2	-4
31	COc1ccccc1N1CCN(C(C)C(=O)Nc2ccc(S(=O)(=O)N3CCOCC3)cc2)CC1 (stereo not given)	0.7	-17	-0.4%	7.1	-1	7
32	Cc1cc(NC(=O)CSCC(=O)Nc2cc(C(F)(F)F)ccc2N2CCOCC2)no1	-0.2	4	-0.7%	2.9	-1	18
33	O=C(CN1C(=O)NC2(CCc3ccccc3C2)C1=O)Nc1ccc(F)cc1 (stereo not given)	-0.3	-12	0.8%	-2.1	1	2
34	Cc1nc2c(C(=O)NCc3ccccc3)c[nH]n2c(=O)c1Cc1ccccc1Cl	2.2	-10	1.9%	/	/	/
35	COc1cc(OC)cc(-c2c(-c3cccs3)c3cc(-c4ccc(OC)c(F)c4)ccc3n2C)c1	-0.9	0	3.0%	-1.8	-1	-5
36	Cc1c(C)n2c(SCC(=O)N3CCN(c4ccccc4)CC3)nnc2[nH]c1=O	0.0	1	2.4%	2.5	4	-1
37	CCN(CC)c1ccc(C(=O)NNC(=O)CN2C(=O)NC(C)(c3ccccc3)C2=O)cc1 (stereo not given)	0.1	-2	-0.3%	1.6	2	-2
38	Cc1ccc([C@H]2N[C@]3(CCCN(Cc4ccco4)C3=O)[C@H]3C(=O)N(C)C(=O)[C@@H]23)cc1	0.2	17	1.0%	-7.9	-3	1
39	COC(=O)c1ccc2nc(NC(=O)CN3C(=O)CCC3=O)sc2c1	-0.3	19	-1.5%	-2.1	7	1
40	O=C(C1CCOCC1)N1CCCC(N2CCN(c3ccc(F)cc3)CC2)C1 (stereo not given)	0.0	-11	-0.7%	-0.2	-25	0
41	COc1cccc(N(CC(=O)NC2CCCC2)C(=O)CCC(=O)Nc2cc(C)on2)c1	-0.1	7	0.4%	-0.6	4	3
42	O=C(NC1CCCC1)c1cc(-c2cccc(Cl)c2)on1	0.8	-4	-0.2%	-1.7	11	12
43	CCCNC(=O)CSc1ccc(S(=O)(=O)N2CCCCC2)cn1	-0.8	0	-0.5%	-4.9	6	1
44	COC(=O)c1ccc(NC(=O)CC2C(=O)N(c3ccccc3)C(=O)N2Cc2ccc(F)cc2)cc1 (stereo not given)	1.6	11	-0.9%	/	/	/
45	O=C(O)CSC1=NC(=Nc2cccc(Cl)c2)C2(CCCCC2)N1c1ccccc1	-0.5	-9	-0.3%	-4.5	12	5
46	CC(C)N(Cc1ccccc1)C(=O)CN1C(=O)COc2ccc(S(=O)(=O)N3CCCCCC3)cc21	-1.0&0.5	-17&0	0.6%&1.0%	-6.0	0	-1
47	COc1ccc(-c2cc3nc(NCc4ccc(NC(C)=O)cc4)n(C)c(=O)c3s2)cc1OC	-0.1	/	1.5%	-4.3	1	1
48	COc1cccc(-c2nn(C)c3sc(C(=O)NCCc4cccc(C)c4)cc23)c1	3.1	19	4.8%	/	/	/
49	O=C(NCc1cccs1)c1ccc([N+](=O)[O-])cc1Cl	-0.5	14	5.0%	2.1	2	-6
50	COC(=O)c1cc(C)sc1NC(=O)CCc1ccccc1	2.9	19	-0.4%	1.0	27	34
51	C/C(=N/NC(=O)CNC(=O)c1ccc2c(c1)OCO2)c1ccc2c(c1)CCCC2	6.2	-19	-0.6%	2.7	6	-1
52	CCc1ccc2ncc3c(-c4ccccc4)nn(-c4ccccc4)c3c2c1	1.4	5	-0.2%	/	/	/
53	COc1ccc(N(CC(=O)N2CCN(c3ccc(F)cc3)CC2)S(=O)(=O)c2c(C)n[nH]c2C)cc1	0.1&-0.6	18&2	1.4%&0.7%	4.4	4	-1
54	COc1ccc(C(=O)NCC(=O)N/N=C/C(C)=C/c2ccccc2)cc1OC	1.2	-9	1.0%	-1.3	6	-2
55	Cc1c(N2C(=O)c3cccc4cccc(c34)C2=O)cnn1C	0.8	32	1.8%	2.1	-11	0
56	Cc1cc(C)nc(N2CCCC(C(=O)NC(C)C)C2)n1 (stereo not given)	-0.5	3	3.5%	-7.8	10	-4
57	O=C(CCC(=O)OCc1ccc(Cl)cc1)Nc1ccccc1	0.5	-5	-1.2%	3.2	/	-1
58	CCCC(CCC)C(=O)Nc1nnc2n1CCS2	2.3	-6	-3.8%	/	/	/
59	COc1ccc(NC(=O)c2cc(-c3ccccc3F)no2)cc1	-1.1	1	-0.5%	/	/	/
60	O=C(NCCNC(=O)c1ccccc1F)c1ccco1	-0.2	-12	2.9%	-2.2	-5	-1

# Continued.
nr	canonical_smiles	TRPML1 ag	TRPML1 blocker	PINK1 modulator	D2 agonist	CtBP-E1A blk	Six1-Eya2 inh
61	O=C(CSc1nnc2ccc(-c3ccccn3)nn12)NCCc1ccccc1	-0.5	7	-0.1%	-7.1	-1	-2
62	CCC(=O)N1CCc2cc(S(=O)(=O)CCC(=O)NCCc3ccccc3)ccc21	-0.4	-6	-1.2%	-1.5	0	10
63	O=C(COc1ccccc1-c1ccccc1)N/N=C/c1ccc2ccccc2c1	-0.1	-6	27%	3.4	-2	-4
64	Cc1ccc(NC(=O)CSc2nc3ncc(Br)cc3[nH]2)cc1C	1.5	-4	3.5%	-1.1	-3	0
65	CCOC(=O)[C@@H]1[C@H]2COc3ccc(Br)cc3[C@H]2N2C(=O)N(c3ccc(Br)cc3)C(=O)[C@]12C	-0.3	-13	1.1%	1.3	3	-6
66	CN(c1ccc(F)cc1)S(=O)(=O)N1CCCC(C(=O)NCc2ccccc2Cl)C1 (stereo not given)	1.4	-17	?	/	/	/
67	CC(Oc1ccc2ccc(=O)oc2c1)C(=O)NCCCn1ccnc1 (stereo not given)	1.7	1	0.4%	5.7	-1	0
68	O=C1NC[C@H](CCCCN2C[C@H](Cc3ccccc3)N(CC3CCCCC3)C(=O)C2=O)N(CCc2ccccc2)C1=O	-0.3	/	1.9%	/	-1	18

# Four entries already listed, ordered by formula weight, rising.
nr	canonical_smiles	TRPML1 ag	TRPML1 blocker	PINK1 modulator	D2 agonist	CtBP-E1A blk	Six1-Eya2 inh
67	CC(Oc1ccc2ccc(=O)oc2c1)C(=O)NCCCn1ccnc1 (stereo not given)	1.7	1	0.4%	5.7	-1	0
64	Cc1ccc(NC(=O)CSc2nc3ncc(Br)cc3[nH]2)cc1C	1.5	-4	3.5%	-1.1	-3	0
62	CCC(=O)N1CCc2cc(S(=O)(=O)CCC(=O)NCCc3ccccc3)ccc21	-0.4	-6	-1.2%	-1.5	0	10
68	O=C1NC[C@H](CCCCN2C[C@H](Cc3ccccc3)N(CC3CCCCC3)C(=O)C2=O)N(CCc2ccccc2)C1=O	-0.3	/	1.9%	/	-1	18
